# D2 PAM – Beta-Arrestin HTS for Positive Allosteric Modulators of the Human D2 Dopamine Receptor: Potentiators. AID 624464, 2012. DiscoveRx D2 beta-arrestin cells, luminescence, 90 min; 100% = 57 uM dopamine signal. 360,000 compounds, 0.23% hits. potentiation, % (concentration not given with the values). D(2) dopamine receptor (Homo sapiens), P14416; active = potentiation of 50% or more; inconclusive = 30% to 50%; inactive = 30% or less;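 note: tested on top of an EC20 dose of dopamine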
# Target sequence (P14416 whole entry, looked up): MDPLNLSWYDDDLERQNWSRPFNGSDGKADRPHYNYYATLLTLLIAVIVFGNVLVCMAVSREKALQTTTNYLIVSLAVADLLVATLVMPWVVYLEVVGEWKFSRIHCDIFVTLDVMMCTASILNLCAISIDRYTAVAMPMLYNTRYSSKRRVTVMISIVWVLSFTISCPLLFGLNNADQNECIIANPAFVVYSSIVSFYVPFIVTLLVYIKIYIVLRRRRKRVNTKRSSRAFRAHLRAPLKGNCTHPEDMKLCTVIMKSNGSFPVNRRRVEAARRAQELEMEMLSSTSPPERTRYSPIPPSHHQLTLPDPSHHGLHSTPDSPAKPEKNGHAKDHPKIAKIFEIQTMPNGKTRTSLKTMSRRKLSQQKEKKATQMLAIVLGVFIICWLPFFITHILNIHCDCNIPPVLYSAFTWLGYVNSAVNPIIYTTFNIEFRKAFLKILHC
#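 PathHunter D2 cells, attached overnight at 37 deg C, received compound in DMSO plus dopamine at EC20 (50 nM final) for 90 min at 37 deg C. Beta-arrestin recruitment was read as luminescence after 1 h with detection reagent at ambient temperature.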
# Six1-Eya2 blk – qHTS Assay for Inhibitors of the Six1/Eya2 Interaction | Homeobox protein SIX1 (Homo sapiens) + Protein phosphatase EYA2 (Homo sapiens), … | AlphaScreen GST-Six1/His-Eya2 binding, biochemical; active compounds read low; control for the full effect not named in the record | activity change, % (concentration not given with the values) | 360,000 compounds, 0.56% hits | AID 651725, 2012; in the data active = activity change below about -65%; inconclusive = about -30% to -65%; inactive = above about -30%; note: % is set by controls: 0 for no effect and ±100 for the full control effect
#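 Homogeneous AlphaScreen proximity assay pairing GST-Six1 with His-tagged Eya2 (added as 5X mix: 250 nM and 500 nM) in 50 mM Tris pH 8.0, 300 mM NaCl, 1 mM TCEP. Glutathione donor and nickel acceptor beads; 1 h, 37 °C, dark.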
# D2 ag – Beta-Arrestin HTS for Positive Allosteric Modulators of the Human D2 Dopamine Receptor: Agonists; D(2) dopamine receptor (Homo sapiens), P14416; 360,000 compounds, 0.084% hits; activation, % (concentration not given with the values); DiscoveRx PathHunter D2 beta-arrestin, luminescence, 90 min; 100% = 57 uM dopamine signal; in the data active = activation above about 40%; inconclusive = about 15% to 40%; inactive = below about 15%; note: the text of the record calls up to 30% inactive
#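 DiscoveRx PathHunter D2 beta-arrestin cells (2,100/well) attached overnight, then compound-stimulated 90 min at 37 C in HBSS/10 mM HEPES/0.1% Tween-20 buffer; beta-galactosidase complementation read by luminescence after 1 h at ambient temperature. Dopamine 57 uM final (EC100) as control.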
# TRPML1 agonist – qHTS for Agonists of the Human Mucolipin Transient Receptor Potential 1 (TRPML1); activation, % (no concentration beside the values); 410,000 compounds, 0.12% hits; AID 624414, 2012; TRPML1-expressing cells, Ca2+ dye fluorescence, FDSS; host cell line not named in the record; reference of the full effect not given here; Mucolipin-1 (Homo sapiens), Q9GZU1; in the data active = activation above about 50%; inconclusive = about 30% to 50%; inactive = below about 30%; note: 0% is about no effect; the text of the record puts the active cut at 80%
# Target sequence (Q9GZU1 whole entry, looked up): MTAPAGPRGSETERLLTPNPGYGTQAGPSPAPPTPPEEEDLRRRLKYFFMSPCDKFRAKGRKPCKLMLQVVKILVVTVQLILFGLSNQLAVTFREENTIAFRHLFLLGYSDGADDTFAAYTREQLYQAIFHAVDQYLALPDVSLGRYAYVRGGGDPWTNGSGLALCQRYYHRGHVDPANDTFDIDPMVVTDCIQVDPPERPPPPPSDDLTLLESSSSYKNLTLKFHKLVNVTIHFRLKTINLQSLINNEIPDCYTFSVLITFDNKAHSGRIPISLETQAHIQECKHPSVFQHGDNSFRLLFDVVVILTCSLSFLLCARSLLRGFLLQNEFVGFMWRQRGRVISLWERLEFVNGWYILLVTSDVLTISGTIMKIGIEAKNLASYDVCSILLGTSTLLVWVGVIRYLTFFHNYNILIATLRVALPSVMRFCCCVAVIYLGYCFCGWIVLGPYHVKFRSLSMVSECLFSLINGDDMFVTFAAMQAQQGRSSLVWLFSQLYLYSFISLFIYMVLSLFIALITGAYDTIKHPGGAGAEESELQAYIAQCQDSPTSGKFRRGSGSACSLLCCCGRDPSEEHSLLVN
#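 Calcium fluorescence on an FDSS kinetic reader gave the read-out. Tet-induced TRPML1-DL cells were plated overnight, dye-loaded (Ca8 with quencher, 45-90 min, room temperature, dark), then read 110 s after compound addition, and again 110 s after 4uM final 54-4 (EC80).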
# PINK1 expr mod – A Quantitative High throughput Screen to Identify Chemical Modulators of PINK1 Expression. PINK1 immunofluorescence, high-content cytometry, 24 h. Potency, µM (series often up to 76.6 µM), for the others: at the highest dose activation (PINK1 increase), actives largely listed as activators. 410,000 compounds, 0.2% hits. AID 624263, 2012; active = well fitted activation curve with a large enough effect; inconclusive = small, poorly fitted or top-dose-only effect; inactive = flat fitted curve, though single readings scatter; cell line not stated here;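 note: potency is the fitted concentration of half-maximal effect; % of control where 0% means no effect; nearly all actives have a fitted effect of over 65% in size; a mitochondrial uncoupler was the plate control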
#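 Compound titrations (5 concentrations, 24 h) on a stable cell line; DMSO and CCCP controls. Endpoint: fixed-cell PINK1 immunofluorescence with mitochondrial, cell and nuclear markers, scanned by microplate cytometer.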
# CtBP-E1A blk – qHTS Assay for Inhibitors of the CtBP/E1A Interaction | 340,000 compounds, 0.49% hits | CtBP / adenovirus E1A interaction (AlphaScreen) | AlphaScreen GST-E1A/His-CtBP binding, 1536-well; active compounds read low; control for the full effect not named in the record | activity change, % (test concentration not listed); in the data active means activity change below about -65%; inconclusive means about -30% to -65%; inactive means above about -30%; note: % is set by controls: 0 for no effect and ±100 for the full control effect
#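 GST-E1A and His-tagged CtBP (125 nM each as 5X stock) were preincubated with pin-transferred compound for 2 h at 37 °C in the dark, then glutathione donor and nickel acceptor beads were added for 1 h before AlphaScreen reading.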
# An asterisk follows results filed as active; u = inconclusive; x = no result given; & = joins results of further samples; [ ] = dose if it differs, or a comment.
canonical_smiles	D2 PAM	Six1-Eya2 blk	D2 ag	TRPML1 agonist	PINK1 expr mod	CtBP-E1A blk
Cc1nc(CCN2C(=O)c3ccccc3C2=O)n[nH]1	-6	3	-2.3	0.4	-0.6%	8
CC(=O)Nc1ccc(-c2ccnc3c2CC(C(=O)NCC2CCOCC2)O3)cc1 (stereo not given)	8	6	-2.3	-0.3	2.9%	-22
Cc1cccc(NC(=O)CN2CCN(C(=O)CNC(=O)Cc3cccc4ccccc34)CC2)c1C	-3	3	-4.0	0.3	1.1%	11
CSC1=NC=C(C#N)C2=NC(c3c(Cl)cccc3Cl)NN12 (stereo not given)	4	3	-2.3	-0.9	-0.5%	-3
COc1ccc(NC(=O)Nc2cccc3c2O[C@H](CN(C)S(C)(=O)=O)[C@@H](C)CN([C@H](C)CO)C3=O)cc1	-1	-5	1.9	-0.2	0.2%	-20
COC(=O)Cc1ccc(OC2(C)CCN(Cc3ccccc3OC(F)F)C2)cc1 (stereo not given)	-19	8	-3.1	-0.1	0.3%	2
Cc1ccc(OCc2nnc(SCc3cc(=O)[nH]c4ccccc34)o2)cc1	9	-3	-0.9	2.7	-2.9%	-5
CC(C)=C(NC(=O)c1ccco1)C(=O)NCCc1nc2ccccc2[nH]1	8	-1	-1.2	1.1	2.5%	5
CN(CC(=O)Nc1cccc(F)c1)C(=O)CN1C(=O)C2CC=CCC2C1=O (stereo not given)	21	-1	7.7	-0.3	1.0%	6
Cc1ccnc(NS(=O)(=O)c2ccc(NC(=O)c3ccc(Br)o3)cc2)n1	-5	-16	-6.4	0.0	-1.4%	-17
Cc1cc(-c2nc3cccnc3s2)ccc1NS(=O)(=O)c1cccs1	6	-3	4.7	1.8	0.7%	1
CC1(C)Cc2c(sc3ncnc(N)c23)CO1	-2	4	0.3	-0.1	-1.9%	0
O=C(N/N=C/c1ccccc1)c1ccc(OCc2ccccc2)cc1	-7	4	-5.5	1.6	9.5%	x
N/C(=N\OC(=O)c1cc([N+](=O)[O-])ccc1Cl)c1cccnc1	1	3	u	-0.2	-2.6%	0
CCN(CC)CCN1C(=O)C(=O)/C(=C(/O)c2ccncc2)C1c1ccccc1F (stereo not given)	-5	3	1.6	-0.5	1.8%	3
COC(=O)c1c(NC(=O)c2ccco2)sc2c1CC(C)(C)NC2(C)C	6	-12	-2.9	-0.4	0.6%	-1
CC(=O)Nc1cccc(NC(=O)c2ccco2)c1	-3	1	-3.1	0.0	x	13
Cc1cc(NC(=O)C(C)SCC(=O)Nc2ccc(SC(F)F)cc2)no1 (stereo not given)	9	3	0.0	-0.3	0.5%	4
CCOC(=O)NC1CCS(=O)(=O)C1 (stereo not given)	-5	1	-1.3	-0.6	1.8%	5
Cc1cccc(NC(=O)CN(CC2CCCO2)C(=O)c2ccc(S(C)(=O)=O)cc2)c1C (stereo not given)	11	-1	-2.0	0.2	-2.3%	9
CCOC(=O)CN1CCC(C2(c3cc4ccccc4[nH]3)OCCO2)CC1	-3	-1	-2.8	-0.2	-0.9%	3
COc1cc2c(=O)n(Cc3ccco3)c(=O)n(CC(=O)c3cccc(Br)c3)c2cc1OC	-3	-7	-0.6	-0.3	10%	-1
COc1ccc(-c2nc(NC(=O)c3n[nH]c(=O)c4ccccc34)sc2C)cc1	-20	-2	-2.9	1.0	1.1%	-1
COCCNC(=O)c1cc2oc3ccccc3c2n1C	-2	-7	1.4	-0.2	4.8%	-11
CC1(C)COC(/C=C/c2ccc([N+](=O)[O-])cc2)=N1	1	1	-2.2	0.5	-0.2%	4
O=C(Nc1ccccc1N1CCCCC1)C1CC(=O)N(c2ccccc2F)C1 (stereo not given)	-3	1	5.5	-0.1	-0.7%	-3
CC(C)CC(N)c1csc(Nc2ccc(C(=O)NCCCO)cn2)n1 (stereo not given)	-10	-70*	-3.6	-0.6	0.5%	-78*
Cc1ccc(S(=O)(=O)N(C)C)cc1NC(=O)C(C)OC(=O)c1ccc2ccccc2n1 (stereo not given)	-10	2	9.4	0.5	0.5%	4
Cc1cccc(CSc2nnc(CCCCCNC(=O)OC(C)(C)C)o2)c1	-1	-2	-4.1	1.1	2.8%	25
COc1ccc(-c2noc(CNC(=O)C(C)Oc3ccccc3)n2)cc1 (stereo not given)	-7	-9	-1.4	-0.3	-1.1%	-21

# Entries of single compounds from above.
# Entry for COc1ccc(-c2nc(NC(=O)c3n[nH]c(=O)c4ccccc34)sc2C)cc1 : D2 PAM: -20; Six1-Eya2 blk: -2; D2 ag: -2.9; TRPML1 agonist: 1.0; PINK1 expr mod: 1.1%; CtBP-E1A blk: -1
# Entry for CCOC(=O)CN1CCC(C2(c3cc4ccccc4[nH]3)OCCO2)CC1 : D2 PAM: -3; Six1-Eya2 blk: -1; D2 ag: -2.8; TRPML1 agonist: -0.2; PINK1 expr mod: -0.9%; CtBP-E1A blk: 3

# Going on with the list:
canonical_smiles	D2 PAM	Six1-Eya2 blk	D2 ag	TRPML1 agonist	PINK1 expr mod	CtBP-E1A blk
O=C(Cn1nc2n(c1=O)-c1ccccc1SC2)N/N=C/c1cccnc1	2	2	-1.8	1.3	-0.5%	x
CCOC(=O)C1CCN(c2ccccc2CN2CCN(c3ccccc3OCC)CC2)CC1	-24	4	-15	x	1.4%	-2
O=c1[nH][nH]c2c(N=Cc3ccccc3O)ccc(F)c12	11	u	13	0.0	-0.1%	-91*
O=C1CSC(c2ccco2)N1 (stereo not given)	-17	-7	-0.6	-0.4	-0.1%	-2
Cc1ccccc1N1CCN(C(=O)c2ccccc2NC(=O)C2CC=CCC2C(=O)O)CC1 (stereo not given)	-5	-2	0.2	-0.3	0.4%	1
CC(C)Oc1cccc(NC(=O)c2cnccc2C(F)(F)F)c1	-17	4	-3.8	-0.4	0.5%	x
CC(CCN1C(Nc2ccccc2)=NC[C@@H]1C)c1ccccc1 (stereo not given in full)	-21	-1	-2.3	-0.6	-0.5%	2
COC(=O)c1cc(CSc2nc3ccccc3[nH]2)oc1C	3	-2	-3.5	1.4	0.4%	-6
CCOC(=O)C(=CNc1ccc(C(F)(F)F)cc1)C(=O)OCC	2	13	-3.6	3.1	-0.3%	11
Cc1cccc(CNC(=O)Cn2ccc3cc(S(=O)(=O)N4CCCCCC4)ccc32)c1	-9	0	1.6	0.7&2.1	4.2%&1.2%	x
CCOC(=O)[C@H]1[C@H]2COc3ccc(OC)cc3[C@H]2N2C(=O)CN(Cc3ccccc3)C(=O)[C@@]12C	-3	-2	-3.4	-0.4	-0.8%	3
COC(=O)Nc1ncc(CN2C(=O)c3ccccc3C2=O)s1	-1	2	0.5	4.0	-1.6%[38.3 µM]	14
COc1ccc(C(=O)NCCCN2CCOCC2)cc1S(=O)(=O)N1CCCc2ccccc21	-10	-13	-1.1	-0.5	-0.2%	12
CC(=O)Nc1ccc(S(=O)(=O)NC(C)c2ccncc2)cc1 (stereo not given)	5	2	4.0	1.7	1.9%	2
CN(C(=O)c1ccc(NC(=O)Cc2ccc(NC(=O)C3CCN(C(=O)C4CC4)CC3)cc2)cc1)C1CCCC1	-9	4	-4.5	-0.1	0.3%	-24
CC12CN3CC(C)(CN(C1)C3c1ccc(Br)cc1O)C2 (stereo not given)	-13	4	-2.9	-0.2	6.1%	-3
COC(=O)c1ccc(CSc2nnc(C)s2)cc1	-10	-6	-4.0	-0.7	-0.7%	-4
CC(C)c1ccc(NC(=O)C2CCCCN2S(=O)(=O)c2ccccc2)cc1 (stereo not given)	-14	7	-3.5	0.3	4.7%	x
COCCNc1nc2nonc2nc1N(C)Cc1ccc(C)cc1	-6	2	-3.9	0.4	0.5%	-1
CCc1ccc(OCCSc2nc3ccccc3n2CCC(=O)O)cc1	-2	3	-2.2	-0.2	1.1%	-18
O=C(C1=C(O)C(=O)N(CCc2ccccc2)C1c1ccncc1)c1cc2ccccc2o1 (stereo not given)	-3	2	-5.6	0.7	4.3%	-14
COc1ccc(CCNC(=O)c2c[nH]c3ccccc3c2=O)cc1OC	13	-3	-0.6	3.9	-2.0%	-2
CCN(C(=O)Cn1c(=O)oc2ccccc21)c1c(N)n(Cc2ccccc2)c(=O)[nH]c1=O	2	-7	-0.1	-1.8	1.4%	x
O=C(CN1C(=O)S/C(=C\c2ccccn2)C1=O)Nc1ccc(F)cc1	4	6	-0.9	0.0	2.5%	8
Cc1ccc2nc(NC(=O)COC(=O)c3cccnc3)sc2c1	1	1	-2.0	-1.2	-0.5%	x
O=C(/C=C(\O)c1ccc(Cl)cc1)C(=O)NNC(=O)C(O)(c1ccccc1)c1ccccc1	-5	-10	-4.6	0.0	-0.2%	5
CCCC#Cc1cnc2c(c1)C(=O)N([C@H](C)CO)C[C@@H](C)[C@@H](CN(C)C(=O)Nc1cccc(F)c1)O2	x	-1	-2.9	x	1.9%	-12
CCN1CCN(S(=O)(=O)c2ccc(S(=O)(=O)NCC3CCCO3)cc2)CC1 (stereo not given)	-2	6	2.6	0.5	-4.9%[38.3 µM]	7
CC1CCCN(CCC(=O)Nc2ccc(Br)cc2)C1 (stereo not given)	-31	2	-1.0	3.6	-0.3%[38.3 µM]	-3
CC(C)(C)OC(=O)N1CCN(C(=O)c2[nH]cnc2C(=O)Nc2ccon2)CC1	-4	6	-1.6	0.1	-1.1%	-4
COc1ccc(C(CNC(=O)c2cccc(S(=O)(=O)N(C)c3ccccc3)c2)N2CCCC2)cc1 (stereo not given)	-6	-4	-2.0	0.3	2.7%	-13
Cc1cccc(NC(=O)CC2C(=O)NCCN2C(=S)Nc2ccccc2)c1 (stereo not given)	-4	1	-0.2	0.2	x	1
CS(=O)(=O)N(CC(=O)NCCSCc1cccc(Cl)c1)c1ccccc1F	-3	-2	0.9	0.8	0.2%	x
Cc1ccc(CNC(=O)c2ccc(CS(=O)(=O)c3ccccc3C)o2)cc1	2	-1	-2.6	-0.9&0.9	-0.1%&2.3%	4
CC(=O)c1c(C)oc2ccc(N(C(C)=O)S(=O)(=O)c3ccc(Br)cc3)cc12	-14	-7	0.3	4.3	4.6%	8
COc1ccc(NC(=O)OCC(C)C)cc1OC	-1	-11	1.5	-0.2	u	-15
COCc1[nH][nH]c(=O)c1C=NCC(=O)OC	4	1	-0.8	-1.0	1.2%	x
O=C(Nc1ccncc1)OCc1ccccc1	-8	17	-6.4	-0.2	0.3%	3
